# Screening results from PubChem BioAssay.
# UUG fidelity: alters start codon recognition fidelity in yeast | S. cerevisiae UUG-firefly luciferase reporter, luminescence/redox ratio | activity score, % at 18.7 µM | actives 0.13% (n = 350,000) | AID 602363;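 active = replicate mean at a twofold rise or more, about +100% in these data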;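 note: firefly luciferase made from a UUG start codon reports start codon fidelity; reporter light over untreated wells divided by growth signal over untreated wells; some hits fall short of that in this replicate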
# eIF4H FP inh: inhibitors of RNA binding by human eIF4H; Q15056; actives 0.94% (n = 290,000); eIF4H fluorescence polarization binding assay; inhibition, % at 35 µM;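 active = 50% or more with normal probe brightness, or confirmed in later tests; inconclusive = above 50% with abnormal brightness, or retests that disagree; inactive = below 50% or failed in later tests; about a fifth of its hits are not listed in these tables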;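 note: calls also rest on retests at 20 µM and on dose response follow-up; 0% = protein and probe with vehicle and 100% = probe without protein; strong numbers were not always called active; many hits fall short of the cut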
# MT1-MMP act inh: MT1-MMP (human) activation inhibition; actives 0.061% (n = 360,000); HT1080 RFP-PRO-GFP cells, GFP/RFP ratio fluorescence, overnight; percent of plate control window, DMSO zero; GFP/RFP ratio change, % at 20 µM;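 active = GFP/RFP ratio change of at least 30% with cell ATP level not reduced by more than half and red fluorescence within 50% of control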; note: strong numbers were not always called active
#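 Test system: HT1080 RFP-PRO-GFP cells; Benchmarks: DMSO and RFP-L50D-GFP cell wells; Timing: cells overnight before dosing, compound overnight, 37 °C, 5% CO2; Compound: one 20 µM compound dose with 1% DMSO; Read-out: GFP/RFP fluorescence ratio.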
# PABP FP inh: PABP-poly(A) binding inhibition; P11940; PABP-poly(A) RNA binding, fluorescence polarization; inhibition, % at 35 µM; actives 1% (n = 290,000); AID 2014;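 active = 50% or more with normal probe brightness, or confirmed in later tests; inconclusive = above 50% with abnormal brightness, or retests that disagree; inactive = below 50% or failed in later tests; about a fifth of its hits are not listed in these tables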;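 note: calls also rest on retests at 20 µM and on dose response follow-up; controls were probe without protein and protein plus probe with vehicle; some compounds called inactive have numbers as strong as hits; many hits fall short of the cut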
# HIV Env fusion: blocks HIV Env-driven cell-cell fusion; HeLa-JRFL Env/CEM21 cell fusion, luciferase; inhibition, % at 12.3 µM; actives 1.1% (n = 360,000); AID 651610;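 active = mean replicate inhibition score of at least 50 and every replicate individually at or above 50; inconclusive = only one of the two criteria met; inactive = mean below 50 and not all replicates reaching 50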;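 note: 0% = plate neutral controls and 100% = maraviroc near 300 nM; one replicate is shown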
# CSC inhib: cancer stem cell inhibition. actives 1.1% (n = 300,000). inhibition, % at 7.5 µM. cancer stem cell-like cells viability, luminescence. AID 2717;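 active = mean at 75% or more and at least half the replicates too; inconclusive = mean and replicates disagree; tested in HMLE shEcad cells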;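 note: 0% = median of negative and 100% = median of positive control wells; the first replicate is given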
# Rce1 inh: yeast Ras-converting enzyme inhibition; actives 0.27% (n = 290,000); calls only; yeast membranes, quenched prenylated peptide cleavage fluorescence; Q03530;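 active = fall in fluorescence gain of 50% or more versus controls, with final raw signal at or below 3038400; inconclusive = same 50% fall but final raw signal above 3038400; inactive = fall in fluorescence gain under 50%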;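 note: plate controls were neutral control wells for no effect and wells lacking membranes for full effect; tested at 10 µM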
# Target sequence (Q03530 whole entry, looked up): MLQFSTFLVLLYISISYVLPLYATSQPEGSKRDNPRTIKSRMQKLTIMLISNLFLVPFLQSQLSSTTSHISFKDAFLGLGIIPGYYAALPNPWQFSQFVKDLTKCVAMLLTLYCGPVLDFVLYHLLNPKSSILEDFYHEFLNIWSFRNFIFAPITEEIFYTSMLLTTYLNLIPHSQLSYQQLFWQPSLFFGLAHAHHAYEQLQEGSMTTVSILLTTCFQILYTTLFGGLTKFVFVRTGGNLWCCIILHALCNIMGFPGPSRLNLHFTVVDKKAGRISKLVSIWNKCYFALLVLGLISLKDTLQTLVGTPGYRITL
# eIF4H FP inh retest: second read-out of eIF4H FP inh, no call of its own (marks repeat the call); inhibition, %; compound at 20 µM; confirmation average;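 mean of two retest wells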
# PABP FP inh retest: second read-out of PABP FP inh, no call of its own (marks repeat the call); inhibition, %; compound at 20 µM; confirmation repeats;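 mean of two retest wells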
# MT1-MMP act inh RFP: also measured in MT1-MMP act inh; calls as there; RFP signal change, %; measured here: RFP expression control read;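 0 = vehicle wells; hits needed this value within 50% of zero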
# * marks the source's active call; other numbers are inactive results; i = inactive; ? = inconclusive; . = not tested or not shown; + = active, no number.
SMILES,UUG fidelity,eIF4H FP inh,MT1-MMP act inh,MT1-MMP act inh RFP,PABP FP inh,HIV Env fusion,CSC inhib,Rce1 inh,others
CC(=O)c1sc2nc(SCC(=O)NCCc3ccccc3)[nH]c(=O)c2c1C,-3,8,8,0,0,-2,0,i,
Cc1cc2nnc(SCC(=O)N3CCN(c4ccccc4)CC3)n2c(N)n1,-19,-2,1,0,2,-39,-7,i,
C=CCC(=O)NC(C)c1cnn(-c2ccccc2C)c1C (stereo not drawn),0,4,-5,0,11,-2,-2,i,
COc1ccc(CN(C)CC(=O)Nc2cccc(S(=O)(=O)N3CCCC3)c2)cc1F,13,.,-3,-7,.,.,-1,.,
O=C(C1CCCC1)N1CCCC(Nc2ccccc2)C1 (stereo not drawn),-5,0,1,3,-3,0,-5,i,
CCC(C)[C@H](NC(=O)NCCCc1ccccc1)C(=O)OC (stereo partly drawn),-20,1,6,0,7,.,6,i,
COc1ccc(S(=O)(=O)N(C)C2(C)CCS(=O)(=O)C2)cc1OC (stereo not drawn),.,.,1,4,.,1,-11,i,
Fc1ccc(CNCC2CCCO2)cc1 (stereo not drawn),-30,6,0,1,2,-4,.,i,
CC(=O)N1CCN=C1SCc1cccc(F)c1,-20,-9,0,2,0,1,16,i,
COC(=O)Nc1ccc(S(=O)(=O)Nc2ccccc2F)cc1,-10,-2,-6,-7,-10,.,-6,i,
S=c1nc(-c2ccccc2)n(CCCN2CCOCC2)c2c1CCCC2,-17,3,3,5,5,.,-2,i,
COc1ccc(-c2[nH]ncc2CN(C)Cc2cccnc2)c(F)c1,.,-9,0,2,3,-6,-3,i,
CCCNc1nc(C)cc(-c2cc(-c3ccccc3)on2)n1,-21,-9,4,-3,-2,-10,6,i,
O=C(Nc1ccc(C(=O)O)cc1)/C(=C\c1ccco1)NC(=O)c1ccc(Br)cc1,-10,.,0,3,.,-4,.,.,
Cc1cc(C)c(OCC(=O)OCC(=O)N2c3ccccc3CC2C)c(C)c1 (stereo not drawn),-4,.,0,1,.,6,-8,i,
COc1ccccc1C(=O)C1CCCN(C(=O)Nc2ccccc2F)C1 (stereo not drawn),-10,11,3,0,-1,14,-7,i,
O=C(Cc1ccccc1)Nc1nnc(-c2cccc([N+](=O)[O-])c2)s1,.,-7,0,2,-13,3,4,i,
Fc1ccc(-c2onc3ccc(C4OCCO4)cc23)cc1,.,26,-5,0,6,6,-6,i,
CCNc1ccc(S(=O)(=O)N2CCCCC2)cn1,-5,.,2,2,.,.,-13,.,
Nc1[nH]n(-c2c(Cl)cc(Cl)cc2Cl)c(=O)c1N=Nc1ccc(S(=O)(=O)Nc2ncccn2)cc1,-7,.,4,4,.,4,-13,.,
COc1cccc(CNC(=O)c2cccc(S(=O)(=O)N3CCN(c4ccc(F)cc4)CC3)c2)c1,-22,.,7,-13,.,.,1,i,
Cc1ccc(C(C(=O)NC2CCCCC2)N(Cc2ccco2)C(=O)Cc2c[nH]c3ccccc23)o1 (stereo not drawn),-16,-4,-10,-8,-4,-10,-5,i,
FC(F)(F)c1cccc(NC(=S)N2CCN(c3cccc(C(F)(F)F)c3)CC2)c1,-13,-4,2,-2,-7,.,-4,i,
COc1ccc(-c2nc(CSCC(=O)NCc3ccc4c(c3)OCO4)c(C)o2)cc1,9,4,2,3,-8,36,11,i,
COc1ccc(CNC(=O)CN(Cc2ccc(Cl)cc2)S(=O)(=O)c2ccccc2)cc1,-22,-16,-1,-12,-2,59*,4,i,
CC(=O)CSc1nc(N)c(C#N)c(-c2cccs2)c1C#N,-9,-10,-5,-11,-14,-52,-2,i,
O=C(NNC(=S)NC1CCCCC1)c1sc2ccccc2c1Cl,.,15,7,0,1,6,28,i,
Cc1ccccc1N1CC(C(=O)Nc2ccc(S(=O)(=O)N3CCCC3)cc2)CC1=O (stereo not drawn),7,.,3,1,.,9,-9,i,
O=c1c(Cl)c(O)c2cccc3c4ccccc4n1c23,.,-10,5,3,0,-11,-1,i,
COc1ccc(C2=Nn3c(nnc3-c3ccco3)SC2)cc1,-22,-1,2,-3,-7,-16,21,i,
CCc1ccc(/C=C2\CN(CC)Cc3c2nc2ccccc2c3C(=O)O)cc1,-14,?,-17,3,?,-90,-12,i,
Cc1ccc(N(CC(=O)Nc2cc(C)cc(C)c2)S(=O)(=O)c2cccc3nonc23)cc1,.,-8,-1,0,-13,10,-4,i,
CCC(C)(C)NC(=O)C(OC(=O)c1ccco1)c1ccccc1F (stereo not drawn),-4,-5,-2,6,0,-2,-17,i,
CN(CC1COc2ccccc2O1)C(=O)c1cc(COc2c(F)cccc2F)on1 (stereo not drawn),1,1,3,2,20,6,1,i,
COc1ccc(NC(=O)CCCn2c(=O)c3sccc3n(Cc3ccccc3)c2=O)cc1,.,5,-2,1,-5,22,8,i,
Cc1nnc(SCC(=O)NC2CCCCCC2)n1C(C)C,-15,0,-1,4,-12,-18,-4,i,
COCCCNC(=O)c1c(N)n(-c2ccccc2)c2nc3ccccc3nc12,8,-3,-1,-3,2,32,-15,i,
CCCc1nc2ccccc2c(=O)n1N,-11,-5,-4,1,-13,.,-9,i,
CCCCOC(=O)Nc1ccc(S(=O)(=O)Nc2ncccn2)cc1,.,-1,-1,0,-6,21,17,i,
Cc1cc(NC(=O)C2C3C(=O)N(Cc4ccc(Cl)cc4)C(C(=O)NC4CCCCC4)C34C=CC2(C)O4)no1 (stereo not drawn),4,1,4,1,-2,.,-24,i,

# Three records drawn at random from those above:
SMILES,UUG fidelity,eIF4H FP inh,MT1-MMP act inh,MT1-MMP act inh RFP,PABP FP inh,HIV Env fusion,CSC inhib,Rce1 inh,others
CCCc1nc2ccccc2c(=O)n1N,-11,-5,-4,1,-13,.,-9,i,
CC(=O)CSc1nc(N)c(C#N)c(-c2cccs2)c1C#N,-9,-10,-5,-11,-14,-52,-2,i,
COc1ccc(C2=Nn3c(nnc3-c3ccco3)SC2)cc1,-22,-1,2,-3,-7,-16,21,i,

# (listing goes on)
SMILES,UUG fidelity,eIF4H FP inh,MT1-MMP act inh,MT1-MMP act inh RFP,PABP FP inh,HIV Env fusion,CSC inhib,Rce1 inh,others
O=C(/C=C/c1ccccc1Cl)Nc1ccccc1,-55,-1,0,-3,-3,-219,36,i,
CSc1ccc(/C=N/NC(=O)CN2CCN(Cc3ccccc3Cl)CC2)cc1,-2,10,-2,1,2,-7,-3,i,
Cc1ccc(C(=O)Nc2ccc3c(c2)OCO3)o1,-4,12,-4,2,-5,.,6,i,
Cc1ccccc1CN1C[C@@H]2C[C@@H](c3cn[nH]c3-c3ccccc3)N3CCC[C@@]23C1=O,.,1,-3,-3,1,15,13,i,
N#Cc1cc(NCC2CCCO2)c([N+](=O)[O-])cc1C#N (stereo not drawn),.,7,4,0,-6,-49,11,i,
Cc1ccc(C)c(S(=O)(=O)NCc2ccc(C(=O)N3CCN(c4ccccc4)CC3)cc2)c1,-4,-2,5,-1,4,12,-7,.,
COc1cc(CNC(=O)C2CCC(=O)N(C3CCCCCC3)C2)cc(OC)c1 (stereo not drawn),-17,-6,-1,8,-7,-23,-17,i,
CCn1c(=O)c(C(=O)CN(C)Cc2ccc(F)cc2)c(N)n(Cc2ccccc2)c1=O,-11,-8,1,-7,8,-1,25,i,
COc1ccccc1N(C)S(=O)(=O)c1ccc(Cl)c(C(=O)Nc2ccncc2)c1,.,.,-11,-14,.,.,3,i,
CCOC(=O)C1=C(C)N=c2s/c(=C\c3ccc(OCC(=O)O)cc3)c(=O)n2C1c1ccc(OC(C)C)cc1 (stereo not drawn),-5,61,4,6,1,6,14,i,eIF4H FP inh retest=-4;PABP FP inh retest=1
CCN(CC)CCn1c2ccccc2c2cnc(N=CN(C)C)c(C#N)c21,2,-1,2,-2,-4,.,-4,+,
CC(C)(OC(=O)c1ccc(C#N)cc1)c1cc2ccccc2c(=O)o1,2,.,3,4,.,15,-10,.,
CC(NC(=O)CN(C)Cc1cccc(Cl)c1)c1ccccc1 (stereo not drawn),-26,21,-3,-1,2,-7,8,i,
O=C(c1ccco1)N1CCN(c2cc(=O)n(-c3ccc(Cl)cc3)c(=O)[nH]2)CC1,3,5,-1,-3,-9,-2,-5,i,
O/N=C(\c1ccccn1)C1CC1c1ccccc1 (stereo not drawn),.,-2,2,4,6,-3,-9,i,
CN(C)CCNC(=S)Nc1ccc(Cl)cc1,-13,-10,1,4,-5,-150,-6,i,
COCC(=O)N(Cc1cc2cc(C)ccc2[nH]c1=O)c1cccc(C)c1C,-3,8,-3,-2,5,5,3,.,
CCCCC(=O)NNC(=S)NC(=O)c1cccc([N+](=O)[O-])c1,-25,-1,2,-1,2,-17,-5,i,
CC(C)(C)c1cn(-c2ccc(Cl)cc2)c(=S)[nH]1,-28,1,2,-3,-5,-19,9,i,
Cn1[nH]c(C(F)(F)F)c(C=Nc2ccc(Cl)cc2)c1=O,0,-13,5,2,-6,-2,44,i,
CCSC1=NCCN1S(=O)(=O)c1ccc(Cl)cc1,.,-1,0,4,-2,2,0,.,
O=C(NC(c1cccnc1)C(F)(F)F)c1cc(COc2ccc3c(c2)CCCC3)on1 (stereo not drawn),-21,-1,-5,-27,-5,-1,27,i,
Cc1ccc(C(CNC(=O)c2ccco2)N2CCN(C)CC2)cc1 (stereo not drawn),2,.,-7,-1,.,-29,-18,i,
CC(C)N1C(=O)NC2(c3ccccc3)N(C)C(=O)N(C)C12c1ccccc1 (stereo not drawn),-7,0,-2,-1,9,-6,-7,i,
CN(C)c1ccc(C2CC(c3cccc(NS(C)(=O)=O)c3)=NN2C(=O)c2ccccc2)cc1 (stereo not drawn),-3,-10,-5,-5,-2,18,-10,i,
CCN1CCN(C(=O)c2ccc(CNS(=O)(=O)c3cccc(OC)c3)cc2)CC1,-3,1,-5,1,-6,10,-12,i,
COc1cc(OC)nc(Oc2ccc(NC(C)=O)cc2)n1,.,-10,0,-3,-4,17,11,i,
Cc1cccc2cc(C#N)c(NCCNC(=S)NCCCN3CCOCC3)nc12,-7,1,9,4,3,-16,-11,i,
Cn1c(C(=O)NCCCN2CCCCC2)cc2sccc21,-6,6,4,5,-2,-20,-9,i,
CC1(C)OC(=O)N(CC(=O)Nc2cccc(C(F)(F)F)c2)C1(C)O (stereo not drawn),-12,-5,1,0,-22,9,3,.,
Cn1cc(/C=N\NC(=O)c2cccs2)c2ccccc21,.,-7,6,4,-13,-66,-12,i,
COc1ccc(C(=O)NNC(=O)CSc2nnc(COc3ccccc3OC)n2C)cc1,-5,2,-4,-7,-7,7,-15,i,
Cc1n[nH]c(=O)nc1NCCN(C)C,-18,-7,2,5,-16,1,-11,i,
CCOC(=O)C1(C)CCCN1C(=O)c1c(F)cccc1F (stereo not drawn),-14,.,-1,3,.,-6,.,.,
O=C(Nc1cccc(Cl)c1)c1ccc2sc([C@@H]3O[C@H](CO)[C@H](O)[C@H](O)[C@H]3O)nc2c1,40,.,6,4,.,-19,.,.,
CN1CCN(c2ccncc2S(=O)(=O)N2CCCC2)CC1,-16,.,1,2,.,5,.,.,
COc1ccc(OC)c(NC(=O)CN2C(=O)COc3ccc(C)cc32)c1,-13,-9,0,0,0,-34,0,i,
COc1ccc(C)cc1NC(=O)C(OC(=O)c1cccc(S(=O)(=O)N(C)c2ccccc2)c1)c1ccccc1 (stereo not drawn),.,-7,0,-1,-4,?,-8,i,
